# Screening data deposited in PubChem BioAssay by Broad Institute.
# Vaccinia stage = blocks a specific stage of Vaccinia orthopoxvirus infection, primary screen, cell-based, single point. Vaccinia-infected cells, mCherry/Venus stage reporter fluorescence; active compounds read low; some inactives read as strong as hits. activity change (mCherry), % (test concentration not listed). 0.01% of 89,000 active. AID 1053133, 2014;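 active means mCherry past -33% and 40 or more points under the early reporter, replicates agreeing; inconclusive means past -33% without that gap or agreement; tested in A549 cells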;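 further: scaled between vehicle wells and reference inhibitor wells; 23 nL library stock went into each well; one replicate is shown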
# Vaccinia stage Venus = further read-out of Vaccinia stage, marked with its call; activity change (Venus), %; measured here: Venus reporter, other viral stage;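 negative = less Venus signal; first of two replicates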
# Active calls of the source: *; ? = inconclusive; nt = not tested or not shown. These rows are one share of the data (hit frequency here may not be typical).
# Under each structure – Vaccinia stage Venus	Vaccinia stage
- O=C(NCC[C@@H]1CC[C@H](NC(=O)c2cnccn2)[C@H](CO)O1)c1ccc2c(c1)OCO2
    5	2
- COc1cccc(-c2ccc([C@@H]3[C@H](C#N)N(C(=O)Cc4ccccc4)[C@H]3CO)cc2)c1
    -13	-17
- NCC[C@H]1CC[C@@H](NC(=O)C2CCCCC2)[C@@H](CO)O1
    1	-5
- CO[C@@H]1CN(C)C(=O)c2cc(NC(=O)C3CCC3)ccc2OC[C@H](C)N(Cc2ccccn2)C[C@@H]1C
    -5	-5
- CC(C)NC(=O)Nc1ccc2c(c1)C(=O)N([C@H](C)CO)C[C@@H](C)[C@H](CN(C)S(=O)(=O)c1ccc(F)cc1)OCCCC[C@H](C)O2
    4	10
- CCS(=O)(=O)N1[C@H](C#N)[C@@H](c2ccc(C3=CCCCC3)cc2)[C@H]1CO
    2	4
- C[C@@H]1CCCCO[C@H](CN(C)S(=O)(=O)c2ccccc2)[C@@H](C)CN([C@@H](C)CO)C(=O)c2cc(N(C)C)ccc2O1
    -6	-13
- C[C@H](CO)N1C[C@H](C)[C@H](CN(C)Cc2ccc3c(c2)OCO3)Oc2ccc(NS(=O)(=O)c3ccc(F)cc3)cc2C1=O
    -12	-3
- C[C@@H]1CCCCO[C@H](CN(C)C(=O)Nc2ccc(C(F)(F)F)cc2)[C@@H](C)CN([C@H](C)CO)C(=O)c2cc(NS(=O)(=O)c3cn(C)cn3)ccc2O1
    6	10
- C[C@@H](NC(=O)C[C@H]1CC[C@H]2[C@@H](COC[C@@H](O)CN2C(=O)Nc2cccc(Cl)c2)O1)c1ccccc1
    -10	-11
- CC=Cc1ccc2n(c1=O)C[C@@H]1[C@@H](CO)[C@H](C(=O)N3CCc4ccccc4C3)N(C(=O)COC)[C@H]21 (mixture of isomers)
    11	20
- CCNC(=O)[C@@H]1[C@@H](CO)[C@@H]2Cn3c(ccc(-c4cccc(F)c4)c3=O)[C@H]1N2C(=O)c1ccccn1
    3	19
- C[C@H](CO)N1C[C@H](C)[C@@H](CN(C)S(=O)(=O)c2cccs2)Oc2ccc(NC(=O)NC3CCCCC3)cc2CC1=O
    0	10
- C#Cc1ccc([C@@H]2C=C(C(=O)Nc3ccccc3)O[C@H](OCc3ccc(CO)cc3)C2)cc1
    4	10
- COC(=O)C[C@@H]1C[C@@H]2c3cc(N(C)C)ccc3O[C@@H]2[C@H](CO)O1
    16	15

# Reformatted bar-delimited: entries from further up.
SMILES | Vaccinia stage Venus | Vaccinia stage
C[C@H](CO)N1C[C@H](C)[C@H](CN(C)Cc2ccc3c(c2)OCO3)Oc2ccc(NS(=O)(=O)c3ccc(F)cc3)cc2C1=O | -12 | -3
C[C@@H]1CCCCO[C@H](CN(C)C(=O)Nc2ccc(C(F)(F)F)cc2)[C@@H](C)CN([C@H](C)CO)C(=O)c2cc(NS(=O)(=O)c3cn(C)cn3)ccc2O1 | 6 | 10

# Next compounds:
# Under each structure – Vaccinia stage Venus	Vaccinia stage
- C[C@H]1CN([C@@H](C)CO)C(=O)c2cc(-c3ccc(C(=O)N(C)C)cc3)cnc2O[C@H]1CN(C)C
    5	23
- C[C@H](CO)N1C[C@H](C)[C@H](CN(C)Cc2ccc(Cl)c(Cl)c2)OCCCC[C@H](C)Oc2ccc(NC(=O)C3CCCCC3)cc2C1=O
    6	-2
- C[C@H](CO)N1C[C@H](C)[C@H](CN(C)S(=O)(=O)c2ccccc2)Oc2ccc(N(C)C)cc2CC1=O
    3	15
- COc1ccc(S(=O)(=O)N(C)C[C@H]2Oc3c(NC(=O)c4ccncc4)cccc3C(=O)N([C@@H](C)CO)C[C@@H]2C)cc1
    10	12
- C[C@@H]1CN([C@H](C)CO)C(=O)c2cc(NC(=O)Cc3cn(C)c4ccccc34)ccc2O[C@@H]1CN(C)Cc1ccc(-c2ccccc2)cc1
    -18	-26
- COc1ccc(CN(C)C[C@@H]2Oc3ccc(NC(=O)NC(C)C)cc3CC(=O)N([C@H](C)CO)C[C@H]2C)cc1
    3	8
- CCCNC(=O)N[C@H]1CC[C@H](CCn2cc(C3CCCCC3)nn2)O[C@@H]1CO
    8	1
- COc1cccc(NC(=O)N[C@@H]2CC[C@@H](CC(=O)Nc3ccccc3)O[C@H]2CO)c1
    4	1
- COc1ccc(-c2ccc([C@H]3[C@@H](CO)N4C(=O)CN(C(=O)NC(C)C)C[C@H]34)cc2)cc1
    -7	-4
- CC(C)C#Cc1ccc2c(c1)O[C@H](CN(C)CC1CCOCC1)[C@H](C)CN([C@H](C)CO)S2(=O)=O
    -29	-28
- C[C@H]1CN([C@@H](C)CO)S(=O)(=O)c2ccc(-c3ccccc3)cc2O[C@H]1CN(C)C(=O)CC1CC1
    -17	-15
- C[C@H]1CN([C@@H](C)CO)C(=O)CCCn2nncc2CO[C@@H]1CN(C)C(=O)C1CCCCC1
    14	7
- CCC(=O)N[C@H]1C=C[C@@H](CC(=O)NCc2ccc(OC)cc2)O[C@H]1CO
    5	1
- C[C@@H]1CN([C@H](C)CO)C(=O)c2cc(NC(=O)C3CC3)ccc2O[C@@H]1CN(C)S(=O)(=O)c1ccc(Cl)cc1
    5	-8
- COc1ccccc1-c1ccc2c(c1)[C@@H]1[C@@H](CCN1C(=O)c1ccncc1)[C@@H](CO)N2
    nt	?

# Entries of single compounds as entered above. Order of screens: Vaccinia stage Venus, Vaccinia stage
# CO[C@@H]1CN(C)C(=O)c2cc(NC(=O)C3CCC3)ccc2OC[C@H](C)N(Cc2ccccn2)C[C@@H]1C is listed with -5, -5
# COC(=O)C[C@@H]1C[C@@H]2c3cc(N(C)C)ccc3O[C@@H]2[C@H](CO)O1 is listed with 16, 15

# (further entries)
# Under each structure – Vaccinia stage Venus	Vaccinia stage
- CC=Cc1ccc2n(c1=O)C[C@H]1[C@H](CO)[C@@H](C(=O)OC)N(C(C)=O)[C@@H]21 (mixture of isomers)
    1	15
- CCC(=O)N[C@@H]1CC[C@@H](CC(=O)NCCN2CCCCC2)O[C@H]1CO
    -10	-6
- C[C@@H]1CN([C@@H](C)CO)C(=O)c2cc(NS(=O)(=O)c3cccs3)ccc2O[C@H]1CN(C)S(=O)(=O)c1ccc(F)cc1
    3	11
- CC(C)NC(=O)N[C@@H]1CC[C@H](CCNS(=O)(=O)c2ccc(F)cc2)O[C@@H]1CO
    9	3
- CO[C@@H]1CN(C)C(=O)c2ccc(NC(=O)C3CCCC3)cc2OC[C@@H](C)N(C(=O)CC2CC2)C[C@H]1C
    0	2
- CCCNC(=O)Nc1ccc2c(c1)C(=O)N(C)C[C@@H](OC)[C@@H](C)CN(C(=O)C1CCOCC1)[C@@H](C)CO2
    1	12
- COc1cccc(CNC(=O)C[C@H]2C=C[C@H](NC(C)=O)[C@H](CO)O2)c1
    12	10
- COCC(=O)N(C)C[C@H]1Oc2cc(-c3ccccc3)ccc2S(=O)(=O)N([C@H](C)CO)C[C@@H]1C
    -3	4
- COc1ccc(S(=O)(=O)N[C@@H]2C=C[C@@H](CC(=O)N3CCN(c4ccccc4)CC3)O[C@H]2CO)cc1
    -1	-5
- O=C(Cc1ccccc1)NC[C@H]1N[C@H](CO)[C@@H]1c1ccc(C2=CCCC2)cc1
    9	5
- C[C@@H]1CN([C@@H](C)CO)C(=O)c2cccc(NS(=O)(=O)c3ccccc3)c2O[C@@H]1CN(C)Cc1ccncc1
    12	7
- N#C[C@@H]1[C@H](c2ccccc2C2=CCCCC2)[C@H](CO)N1C(=O)c1ccccn1
    -5	-7
- COc1ccc(S(=O)(=O)N(C)C[C@H]2Oc3c(NC(=O)C4CCCCC4)cccc3C(=O)N([C@H](C)CO)C[C@@H]2C)cc1
    -10	-6
- C[C@@H]1CN([C@H](C)CO)C(=O)c2cc(NC(=O)Nc3ccccc3)ccc2O[C@@H]1CN(C)Cc1ccc(C(=O)Nc2ccccc2N)cc1
    15	12
- COc1ccc2c3c(n(C)c2c1)[C@@H](CO)N(C(=O)C1CC1)CC31CCN(CC2CCCC2)CC1
    -6	-9

# The list goes on; it opens with the four that closed the last part.
# Under each structure – Vaccinia stage Venus	Vaccinia stage
- N#C[C@@H]1[C@H](c2ccccc2C2=CCCCC2)[C@H](CO)N1C(=O)c1ccccn1
    -5	-7
- COc1ccc(S(=O)(=O)N(C)C[C@H]2Oc3c(NC(=O)C4CCCCC4)cccc3C(=O)N([C@H](C)CO)C[C@@H]2C)cc1
    -10	-6
- C[C@@H]1CN([C@H](C)CO)C(=O)c2cc(NC(=O)Nc3ccccc3)ccc2O[C@@H]1CN(C)Cc1ccc(C(=O)Nc2ccccc2N)cc1
    15	12
- COc1ccc2c3c(n(C)c2c1)[C@@H](CO)N(C(=O)C1CC1)CC31CCN(CC2CCCC2)CC1
    -6	-9
- CC(C)C#Cc1ccc([C@H]2[C@@H](CO)N3CCCCN(C(=O)Nc4ccccc4)C[C@@H]23)cc1
    -18	-12
- Cc1ccc(S(=O)(=O)Nc2ccc3c(c2)C(=O)N(C)[C@H]2CC[C@H](CC(=O)O)O[C@@H]2CO3)cc1
    5	9
- C[C@H](NC(=O)[C@H]1[C@H](CO)[C@H]2Cn3c(cccc3=O)[C@@H]1N2CCC(F)(F)F)c1ccccc1
    4	3
- C[C@H]1CN([C@@H](C)CO)C(=O)Cc2cc(NC(=O)C3CCCCC3)ccc2O[C@@H]1CN(C)S(=O)(=O)c1ccc(F)cc1
    -7	-3
- C[C@@H]1CN([C@@H](C)CO)C(=O)c2cc(-c3ccc(C(=O)N(C)C)cc3)cnc2O[C@H]1CN(C)C(=O)c1ccncc1
    15	19
- COC(=O)C[C@@H]1C[C@H]2c3cc(NC(=O)NC4CCCCC4)ccc3O[C@H]2[C@@H](CO)O1
    3	4
- COc1cccc(NC(=O)N(C)C[C@@H]2Oc3cc(C#CC4(O)CCCC4)ccc3S(=O)(=O)N([C@H](C)CO)C[C@H]2C)c1
    -10	-1
- C[C@@H]1CN([C@@H](C)CO)C(=O)Cc2cc(NS(=O)(=O)c3cccs3)ccc2O[C@@H]1CN(C)S(=O)(=O)c1ccccc1
    -4	5
- Cc1ccc(S(=O)(=O)N(C)C[C@@H]2Oc3ncc(-c4ccccc4)cc3C(=O)N([C@@H](C)CO)C[C@@H]2C)cc1
    -8	-11
- COc1cccc(-c2ccc([C@@H]3[C@@H](CO)N4C(=O)CN(C(=O)C5CCCC5)C[C@H]34)cc2)c1
    -16	-33
- CC(C)NC(=O)N(C)C[C@@H]1Oc2c(NS(C)(=O)=O)cccc2C(=O)N([C@@H](C)CO)C[C@H]1C
    -8	4
- CCCNC(=O)C[C@H]1CC[C@H]2[C@H](COc3ccc(NC(=O)c4ccc5c(c4)OCO5)cc3C(=O)N2C)O1
    7	9
- CC(C)NC(=O)Nc1ccc2c(c1)CC(=O)N([C@@H](C)CO)C[C@@H](C)[C@H](CN(C)C(=O)NC1CCCCC1)O2
    -5	0
- C[C@@H]1CN([C@H](C)CO)C(=O)Cc2cc(NC(=O)Nc3ccc(F)cc3)ccc2O[C@@H]1CN(C)CC1CC1
    -6	-3
- Cc1noc(C)c1NC(=O)Nc1cccc2c1O[C@@H](CN(C)Cc1ccc(C(=O)Nc3ccccc3N)cc1)[C@H](C)CN([C@@H](C)CO)C2=O
    9	16
- O=C(c1cccnc1)N1C[C@H]2[C@@H](c3ccccc31)[C@@H](CO)N2C(=O)C1CCCC1
    10	2
- C[C@@H]1CCCCO[C@H](CN(C)S(C)(=O)=O)[C@H](C)CN([C@@H](C)CO)C(=O)c2cc(NS(=O)(=O)c3ccc(F)cc3)ccc2O1
    3	8
- C[C@H](CO)N1C[C@H](C)[C@H](CN(C)CC2CCCCC2)OCCCC[C@H](C)Oc2ccc(NC(=O)CCCN(C)C)cc2C1=O
    -2	-12
- C[C@H]1CN([C@@H](C)CO)C(=O)c2cc(-c3ccncc3)cnc2O[C@H]1CN(C)C(=O)C1CCOCC1
    26	36
- C[C@@H]1CN([C@@H](C)CO)C(=O)c2cc(C#CCc3ccccc3)cnc2O[C@H]1CN(C)C(=O)Cc1cccnc1
    5	8
- O=C(Nc1ccccc1)C1=C[C@@H](c2csc3ccccc23)C[C@@H](OCc2ccc(CO)cc2)O1
    6	-3
- Cc1ccccc1-c1ccc(C2[C@H]3CNC[C@@H]2N3S(=O)(=O)c2cn(C)cn2)cc1 (stereo partly drawn)
    1	-8
- COc1ccc(S(=O)(=O)Nc2ccc3c(c2)C(=O)N([C@H](C)CO)C[C@H](C)[C@H](CN(C)Cc2ccc4c(c2)OCO4)OCCCC[C@@H](C)O3)cc1
    nt	?
- C[C@@H]1CN([C@@H](C)CO)C(=O)c2cc(NC(=O)Nc3ccc(C(F)(F)F)cc3)ccc2O[C@@H]1CN(C)Cc1ccc2c(c1)OCO2
    nt	?
- CCCC#Cc1ccc([C@@H]2[C@H]3CN(CC4CCOCC4)CCCCN3[C@H]2CO)cc1
    0	-8
- Cc1noc(C)c1NC(=O)Nc1ccc2c(c1)C(=O)N([C@H](C)CO)C[C@H](C)[C@H](CN(C)C(=O)Nc1ccc(C(F)(F)F)cc1)O2
    13	11
- C/C=C/c1cnc2c(c1)C(=O)N([C@@H](C)CO)C[C@H](C)[C@@H](CN(C)C(=O)C1CCCCC1)O2
    4	5
- Cc1cc(C(=O)Nc2cccc3c2O[C@H](CN(C)S(=O)(=O)c2cn(C)cn2)[C@H](C)CN([C@@H](C)CO)C3=O)n(C)n1
    17	33
- COc1ccccc1CNC(=O)C[C@H]1C[C@@H]2c3cc(NC(=O)Nc4ccccc4F)ccc3O[C@@H]2[C@@H](CO)O1
    1	5
- COCC(=O)N(C)C[C@@H]1Oc2ncc(C3=CCCCC3)cc2C(=O)N([C@H](C)CO)C[C@@H]1C
    2	3
- O=C(CN1CCOCC1)NCC[C@H]1CC[C@@H](NS(=O)(=O)c2ccc(F)cc2)[C@H](CO)O1
    -6	-4
- Cc1ccc(S(=O)(=O)Nc2ccc3c(c2)CC(=O)N([C@@H](C)CO)C[C@H](C)[C@H](CN(C)C(=O)Nc2c(C)noc2C)O3)cc1
    11	22
- CC(=O)N1C[C@H]2[C@@H](c3ccccc31)[C@H](CO)N2C(=O)CC1CC1
    -1	1
- C[C@@H]1CN([C@@H](C)CO)C(=O)c2cc(-c3ccccc3)cnc2O[C@H]1CN(C)C(=O)Nc1ccccc1
    -8	-14
